# T cruzi inh = inhibitors of intracellular T. cruzi growth, primary screen, luminescence, NIH3T3 host cells | T. cruzi beta-gal in NIH3T3, 90 h | inhibition, % (test concentration not listed) | hit rate 1.4% among 300,000;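 active means mean inhibition across valid replicates above about 55%, limit read from the data; inconclusive means mean below that limit but half or more replicates reach it; inactive means mean below it, under half of replicates reach it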;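 further: signal also drops with host cell toxicity which is not excluded here; 0% = plate median of DMSO wells and 100% = zero luminescence signal; higher percent means less beta-gal luminescence so fewer parasites; stock transfer was 50 nL into about 50 µL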
# Calb FLC = C. albicans growth inhibition with fluconazole, primary screen, CaCi-2 strain, Alamar Blue fluorescence; growth inhibition, % (test concentration not listed); hit rate 0.57% among 300,000; AID 1979, 2009; C. albicans CaCi-2 (fluconazole-resistant clinical isolate) + fluconazole, 48 h;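 active means most replicates above 75%; inconclusive means exactly half above 75%; inactive means most below 75%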;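 further: all wells also contain fluconazole at 8 µg/ml as a sub-toxic cotreatment; 0% = median of DMSO wells and 100% = median of geldanamycin control wells; wells of about 8 µL received 7.5 nL stock; the first replicate is given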
# MLL AF4-AF9 inh = inhibitors of AF4 peptide binding to AF9, primary screen, biochemical, AlphaScreen, biotin-AF4 peptide, FLAG-AF9, single point | inhibition, % at 10 µM | Protein AF-9 (Homo sapiens), P42568 | hit rate 0.47% among 350,000;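 active means every replicate reaching a set inhibition limit, whatever the replicate mean, cut at about 25% in these data; inconclusive means mean inhibition reaches that limit but some replicates miss it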;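 further: 0% = plate neutral control median and 100% = total signal loss; the record names both 10 and 1 µM as test concentration; the first replicate is given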
# Target sequence (P42568 whole entry, looked up): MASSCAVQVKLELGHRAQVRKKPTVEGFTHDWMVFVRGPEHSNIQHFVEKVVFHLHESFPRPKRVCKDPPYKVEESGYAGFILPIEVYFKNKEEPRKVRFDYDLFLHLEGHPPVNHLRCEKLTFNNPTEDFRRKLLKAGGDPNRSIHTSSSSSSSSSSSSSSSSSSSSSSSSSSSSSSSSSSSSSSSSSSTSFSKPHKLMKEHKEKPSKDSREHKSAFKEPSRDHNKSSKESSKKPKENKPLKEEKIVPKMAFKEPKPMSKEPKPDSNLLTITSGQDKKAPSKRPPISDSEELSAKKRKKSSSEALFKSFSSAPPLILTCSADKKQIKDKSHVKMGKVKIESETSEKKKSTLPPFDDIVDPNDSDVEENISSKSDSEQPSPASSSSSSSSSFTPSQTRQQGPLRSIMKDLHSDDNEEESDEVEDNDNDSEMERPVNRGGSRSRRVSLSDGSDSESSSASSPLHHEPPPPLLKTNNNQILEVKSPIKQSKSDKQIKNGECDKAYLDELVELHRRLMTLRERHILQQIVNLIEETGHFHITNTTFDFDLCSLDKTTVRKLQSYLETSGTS
# Beta cell apopt = inhibitors of cytokine-induced beta cell apoptosis, primary screen, luminescence. INS-1E cytokine-induced death, ATP luminescence, 48 h; percent of positive-control rescue, neutral wells zero. protection from apoptosis, % (test concentration not listed). hit rate 0.8% among 300,000. AID 435005, 2010;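 active means all replicates at 75% or more, or half of them and the mean; inconclusive means half reach 75% but not the mean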;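 further: 0% = cytokine-treated negative control wells and 100% = positive control rescue; higher means more ATP so stronger rescue from cytokine killing; wells of about 40 µL received 100 nL stock; the first replicate is given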
# RanGTP-Imp inh = inhibitors of RanGTP-importin-beta interaction, primary screen, biochemical, FRET, CFP-Ran, YFP-importin-beta, homogeneous; AID 2216, 2009; inhibition, % (no concentration beside the values); hit rate 1.1% among 300,000; cell-free CFP-Ran/YFP-importin-beta FRET ratio; Ran GTPase (GTP-bound) - importin-beta complex;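 active means most replicates above 15%; inconclusive means exactly half above 15%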;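 further: 0% = DMSO wells and 100% = Ran loaded with GDP instead of GTP; wells of about 40 µL received 100 nL stock; the first replicate is given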
# rRNA inh HTS = reduced GFP signal of wild-type E. coli, primary screen, bacterial rRNA inhibitor project, GFP/RFP fluorescence, OD600, single point; hit rate 1.6% among 350,000; GFP signal change (wild-type ribosome), % (no concentration beside the values); E. coli WT GFP vs humanized-ribosome RFP mutants, 24 h; hits give low values; DMSO median 0, no signal -100;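 active means significant combined selectivity score with lowered wild-type GFP, culture density cut under 30%, mutant RFP and density less affected; inactive means any of these conditions unmet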; further: one replicate is shown; some compounds called inactive have numbers as strong as hits
# Bfl-1 A1 inh = caspase 3/7 activation in MEF A1-2A-BIM cells, primary screen, A1 inhibitor project, cell-based, luminescence, HTS | Caspase-Glo 3/7 luminescence, 3 h; percent of clofoctol response, vehicle zero | caspase activation, % (no concentration beside the values) | hit rate 0.066% among 330,000 | AID 2462, 2010;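 active means over half of replicate activation scores above 10%, or exactly half above 10 with the replicate mean above 10; inconclusive means replicate mean below 10 yet half the replicates above 10; inactive means over half of replicates below 10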;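 further: wells of about 30 µL received 50 nL stock; many hits fall short of the cut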
# Vif TR-FRET = inhibitors of Vif binding to APOBEC3G peptide, primary screen, biochemical, TR-FRET, GST-Vif 1-94, biotin-A3G peptide, dose response retest (AID 1117319); Virion infectivity factor (Human immunodeficiency virus type 1 group M subtype B (isolate …; TR-FRET GST-Vif / biotin-A3G peptide binding; higher % means a stronger effect; test concentration not given here; strong numbers were not always called active; inhibition, %; hits with a dose series show IC50 in µM; hit rate 0.57% among 260,000;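 active means above the screen mean plus three standard deviations and confirmed in dose response; inconclusive means results disagree or hit not tested in dose response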;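 further: Vif residues 1-94 fused to GST binding biotinylated APOBEC3G peptide 110-148; 0% = full assay without inhibitor and 100% = GST in place of GST-Vif; retest series ran down from 100 µM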
# rRNA inh HTS OD600 = further read-out of rRNA inh HTS, marked with its call; OD600 change, %; measured here: OD600 growth;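 optical density of the mix in the first replicate; 0 = DMSO median and -100 = no signal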
# rRNA inh HTS RFP = recorded beside rRNA inh HTS, whose call it bears; RFP signal change, %; measured here: RFP humanized mutant strains;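 first replicate; 0 = DMSO median and -100 = no signal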
# An asterisk follows results filed as active; ? = inconclusive; / = not tested or not shown; & = joins results of further samples. Not all compounds are listed, so the mix of outcomes need not match the whole.
SMILES,T cruzi inh,Calb FLC,MLL AF4-AF9 inh,Beta cell apopt,RanGTP-Imp inh,rRNA inh HTS,rRNA inh HTS OD600,rRNA inh HTS RFP,Bfl-1 A1 inh,Vif TR-FRET
CCCC(=O)C1=C(O)C(C(=O)OC)C(C)(C)CC1=NC(C)(C)C (stereo unspecified),-5,-6,/,-4,0.3,/,/,/,-0.6,2%
CN=C(Nc1ccc(C(=O)OC)s1)c1ccc(Cl)cc1,0,-24,6.9,-11,/,-9,-10,-8.5,-0.6,-15%
Cc1c(C(=O)NCCSCc2c(F)cccc2Cl)cnn1-c1ccc(F)cc1,3,4,-1.5,1,3.3,-36*,-17*,-3.6*,-0.1,?
CCc1cc(CNC(=O)C2CCC(=O)N(Cc3cccc(F)c3)C2)on1 (stereo unspecified),-18,-4,-1.6,-2,0.1,13,15,1.3,-0.1,-6%
COc1ccccc1CNC(=O)c1csc(Cc2ccc(Cl)cc2)n1,13,15,/,-6,-0.4,/,/,/,-0.9,-4%
CC1(C)C(N(O)C(=O)Nc2ccc(Cl)cc2)N(c2ccc(Cl)cc2)C(=O)N1CC(=O)NN (stereo unspecified),-6,28,3.0,-17,-1.5,0,3,8.4,0.9,-1%
Cc1ccc(C)c(S(=O)(=O)N2CCN(Cc3cc4c(cc3O)OCO4)CC2)c1,/,/,2.7,-10,/,-5,2,-0.2,-0.6,/
Cc1ccc(C(c2nnnn2CC2CCCO2)N2CCN(Cc3ccccc3)CC2)cc1 (stereo unspecified),23,2,0.8,0,3.7,4,-4,-4.8,0.5,/
O=C(OCC(=O)N1CCCC1)c1cc(Cl)ccc1[N+](=O)[O-],3,2,-8.3,-9,?,5,5,-0.6,0.4,/
COc1ccc(C(=O)N2c3cc4c(cc3C(C)=CC2(C)C)OCO4)cc1,10,-4,32*,/,2.6,/,/,/,/,-1%&14%
NS(=O)(=O)c1ccc(NC(=O)C2(c3ccccc3)CCCC2)cc1,1,5,1.4,-4,0.6,-7,-10,-1.6,-1.5,15%
COc1ccc(C(C(=O)NC2CCCC2)N(CCN2CCOCC2)C(=O)c2ccc(OC)c(OC)c2)cc1 (stereo unspecified),-6,6,/,-1,-1.2,/,/,/,0.0,8%
COc1cc(OC)cc(C(=O)NC2CC(C)(C)NC(C)(C)C2)c1,-19,2,-7.4,-2,5.0,5,14,0.3,0.2,3%
COc1ccc(OC)c(NC(=O)c2ccccc2N(Cc2ccccc2)S(C)(=O)=O)c1,21,28,4.9,2,-3.6,-16,-33,-1.0,0.5,8%
COc1ccccc1C(=O)NCCC(=O)NCC(c1ccccc1OC)N1CCCC1 (stereo unspecified),-11,-2,-1.0,-2,-2.4,0,3,-2.8,0.4,-2%
CC1CN(c2nc3ccccn3c(=O)c2/C=C(\C#N)S(=O)(=O)c2ccccc2)CC(C)O1 (stereo unspecified),8,-1,/,-2,6.9,/,/,/,-0.1,30%
CCCCc1nc(C(N)=O)c2[nH]c(=O)n(-c3ccc(OCC)cc3)c2n1,6,-1,/,-3,?,3,3,1.1,0.1,23%
CN1CCN(CC(=O)Nc2cc(S(=O)(=O)N3CCOCC3)ccc2Cl)CC1,-2,1,-1.9,2,-0.8,14,13,-0.7,0.0,5%
CC(C)OC(=O)c1cc2c(ccn2C)n1CC(=O)N1CCC(Cc2ccccc2)CC1,28,7,/,12,1.5,/,/,/,1.1,5%
CCN(CC)S(=O)(=O)c1cc(C(=O)OCC(=O)Nc2cccc(C)c2C)ccc1F,-3,6,2.1,/,1.7,2,-3,-5.9,0.7,/
S=C1N(c2ccccc2)C(c2ccccc2)N2CCCN12 (stereo unspecified),16,-4,/,2,?,/,/,/,0.1,?
Cc1csc(NC(=O)CNC(=O)OCc2ccccc2)n1,-19,-29,/,1,5.9,/,/,/,-0.2,-2%
O=C(COc1ncnc2sccc12)Nc1ccc2c(c1)OCCO2,-8,21,/,-3,1.0,/,/,/,0.0,-2%
Cc1ccc(O)c(NC(=O)c2cc(-c3cccs3)on2)c1,-10,-2,-2.9,4,-1.3,3,17,0.5,-4.3,/
COc1cccc(OC)c1C(=O)Nc1cccc(-n2cnnn2)c1,7,-3,-0.8,-7,-4.8,3,3,1.5,1.7,7%
SMILES,T cruzi inh,Calb FLC,MLL AF4-AF9 inh,Beta cell apopt,RanGTP-Imp inh,rRNA inh HTS,rRNA inh HTS OD600,rRNA inh HTS RFP,Bfl-1 A1 inh,Vif TR-FRET
Cc1ccc(S(=O)(=O)N(C)CC(=O)O/N=C(\N)c2cccc(Br)c2)cc1,20,-16,-1.4,4,?,-25,-23,-3.8,0.8,-2%
CC(C)C(NC(=O)c1ccccc1F)C(=O)NCc1ccccc1 (stereo unspecified),1,-3,-1.6,/,-1.4,6,2,1.0,1.9,/
COc1ccc(/C=N/N2CCN(C)CC2)cc1OC,31,-1,/,-2,0.4,/,/,/,0.4,7%
Cc1ccc(-c2cc(C(F)F)n3ncc(C(=O)Nc4c(C)nn(Cc5c(Cl)cccc5Cl)c4C)c3n2)cc1,-5,-2,/,9,?,/,/,/,0.6,-3%
CC(=O)Nc1ccc(-c2csc(NC(=O)C3CSC4(C)CCC(=O)N34)n2)cc1 (stereo unspecified),10,-1,5.5,-5,-2.7,-2,5,-2.6,0.5,-3%
C=CCOc1ccccc1CNc1ccc2c(c1)OCCO2,73*,-10,/,9,-2.5,/,/,/,-4.6,11%
CCCN1C(=O)COc2ccc(C(=O)c3ccccc3C(=O)O)cc21,-6,12,-1.8,-7,-1.6,5,4,1.3,0.7,2%
CC(=O)Nc1ccc(S(=O)(=O)NC(C)CCc2ccccc2)cc1 (stereo unspecified),-3,-25,2.3,1,0.1,-4,-9,3.0,-0.5,/
N#Cc1ccsc1NC(=O)COC(=O)CCCSc1nc2ccccc2s1,-10,7,/,-1,0.1,/,/,/,-2.5,1%
CCc1ccccc1NC(=O)c1nnn(CC(=O)Nc2ccccc2C)c1N,-8,1,/,1,-1.5,/,/,/,-0.3,5%
COc1ccc(/C=C\c2onc(C)c2S(=O)(=O)N2CCC(C(=O)NCCC(C)C)CC2)cc1,26,1,-2.2,16,-2.0,6,-1,-1.1,0.0,-9%
Cc1nn(C(=O)CN2C(=O)c3ccccc3C2=O)c(C)c1Br,-1,-8,/,2,-4.1,/,/,/,1.5,29%
Cc1ccc(C(=O)NNC(=O)Cc2ccccc2)cc1,-11,3,/,-4,-3.0,1,4,0.3,1.0,-1%
FC(F)(F)c1cc(-c2ccccc2)nc(NCc2cccs2)n1,23,11,-0.4,2,5.1,4,7,-1.5,-0.5,-4%
COc1ccc2[nH]c3c(c2c1)CCN1C(=O)N([C@@H](C)C(=O)NCCc2ccc(F)cc2)C(=O)[C@]31C,48,-4,9.0,3,5.8,/,/,/,0.2,/
COc1cc(Cl)c(C)cc1NC(=O)CCNC(=O)c1ccco1,3,6,-2.7,3,?,2,-21,-2.1,-0.3,/
Cc1cc2ccccc2n1CCNC(=O)c1ccccc1,26,-4,/,0,6.2,/,/,/,-1.4,10%
COc1ccc(-c2c(-c3cc(OC)cc(OC)c3)n(C)c3ccc(-c4ccc5cc[nH]c5c4)cc23)cc1,/,/,1.7,1,/,11,14,6.1,-0.1,/
COc1ccccc1CC(=O)NC1CC(C)(C)NC(C)(C)C1,3,6,/,-5,-1.3,/,/,/,1.6,19%
Cc1ccc([N+](=O)[O-])c(-c2n[nH]c(=S)n2-c2cccc(Cl)c2)c1,-10,17,-2.3,3,-2.0,-7,-14,-4.5,1.0,2%
Cc1c(C#N)c(O)[nH]c(=O)c1N=Nc1ccc(Cl)c(C(=O)O)c1,-8,-4,0.8,3,-3.5,19,14,3.4,-2.7,0%
CCOC(=O)c1cnc(SCC(=O)N2CCN(c3ccccc3)CC2)nc1N,4,-8,/,-6,0.0,/,/,/,-0.8,7%
CC(=O)C1=C(C)NC(SCC(=O)c2ccc(Cl)cc2)=C(C#N)C1c1ccco1 (stereo unspecified),32,23,/,/,-12,/,/,/,0.0,?
CC(NC(=O)COc1ccc(Br)cc1)C(=O)O (stereo unspecified),-18,24,/,-8,6.2,9,15,0.7,-0.5,2%
Cc1ccc(S(=O)(=O)NCC(=O)OCC(=O)c2cccs2)cc1,-12,5,/,-7,-3.5,/,/,/,1.5,-5%
SMILES,T cruzi inh,Calb FLC,MLL AF4-AF9 inh,Beta cell apopt,RanGTP-Imp inh,rRNA inh HTS,rRNA inh HTS OD600,rRNA inh HTS RFP,Bfl-1 A1 inh,Vif TR-FRET
CN(C)c1ccncc1C(=O)Nc1ccc(F)cc1F,2,-9,/,-8,-2.6,6,8,1.4,-0.5,/
CC(=O)NCCC(=O)Nc1nc(-c2ccc3ccccc3c2)cs1,60*,10,-8.8,/,-0.6,-13,-14,-0.1,/,/
COc1cccc(OC)c1C(=O)NC(=S)Nc1ccc2oc(=O)ccc2c1,-12,-4,2.7,9,4.1,7,9,2.2,0.7,/
Cc1ccc(C)c(N2C(=O)CC(Cc3ccccc3)C2=O)c1 (stereo unspecified),-21,7,-5.3,-6,-0.1,-2,-8,-3.0,-0.2,/
Cc1cc(C)c[n+](-c2[nH]c(=O)sc2/C=N/N=C(\[O-])c2cccnc2)c1,-30,8,-2.8,2,1.8,9,5,-0.9,-0.1,/
COc1ccccc1C(=O)OCC(=O)NC(=O)NC1CCCC1,/,/,-5.0,-4,/,-4,-1,-0.5,0.0,/
O=C1CN(C(=O)CSc2nc(-c3ccccc3)cs2)c2ccccc2N1,-7,?,/,3,-3.1,/,/,/,-0.2,17%
CC1CCCC(NC(=O)COC(=O)COc2ccc(Cl)cc2)C1C (stereo unspecified),8,1,/,-2,0.7,/,/,/,-0.9,12%
Cc1ccc(S(=O)(=O)/C(C#N)=C/c2c(N3CCOCC3)nc3ccccn3c2=O)cc1,9,-2,/,/,5.4,/,/,/,/,16%
COCCC(=O)N1CCCC(C(=O)c2ccc(C(F)(F)F)cc2)C1 (stereo unspecified),-7,-7,-3.2,/,3.6,5,3,4.1,-0.5,/
COc1ccc(OC)c(NC(=O)CCC(=O)Nc2nnc(C(F)(F)F)s2)c1,-4,-7,/,0,-2.7,/,/,/,0.1,1%
COc1ccccc1Oc1ccc(N2CC(C(=O)OCC(=O)c3ccccc3)CC2=O)cc1 (stereo unspecified),-11,6,-1.7,-1,0.9,0,-3,0.4,-0.3,/
